FPRL1 ligand – ligands of human FPRL1, also counter-screen for FPR ligands | FPRL1-expressing cells, fluorescent ligand binding inhibition, flow cytometry | inhibition, %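 (tested at 6.7 µM)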 | hit rate 0.3% among 24,000;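 also: 0% = buffer alone and 100% = receptor blocker peptide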
Target sequence (P25090 whole entry, looked up): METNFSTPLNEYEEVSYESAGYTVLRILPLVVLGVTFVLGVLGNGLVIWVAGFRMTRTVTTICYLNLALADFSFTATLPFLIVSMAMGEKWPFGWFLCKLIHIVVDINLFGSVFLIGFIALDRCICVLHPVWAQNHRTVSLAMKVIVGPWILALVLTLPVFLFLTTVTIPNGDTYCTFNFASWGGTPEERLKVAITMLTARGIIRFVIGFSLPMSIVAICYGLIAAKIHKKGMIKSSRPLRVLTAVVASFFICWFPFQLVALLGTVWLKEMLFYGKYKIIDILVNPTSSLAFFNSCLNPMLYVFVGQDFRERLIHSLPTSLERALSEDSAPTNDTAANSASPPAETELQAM
FPR binder – human FPR ligand, with FPRL1 counter-screen | P21462 | FPR-expressing cells, fluorescent ligand binding, flow cytometry | inhibition, %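 (tested at 6.7 µM)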 | hit rate 0.74% among 24,000 | AID 440;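 also: 0% = buffer wells and 100% = receptor blocker peptide wells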
Target sequence (P21462 whole entry, looked up): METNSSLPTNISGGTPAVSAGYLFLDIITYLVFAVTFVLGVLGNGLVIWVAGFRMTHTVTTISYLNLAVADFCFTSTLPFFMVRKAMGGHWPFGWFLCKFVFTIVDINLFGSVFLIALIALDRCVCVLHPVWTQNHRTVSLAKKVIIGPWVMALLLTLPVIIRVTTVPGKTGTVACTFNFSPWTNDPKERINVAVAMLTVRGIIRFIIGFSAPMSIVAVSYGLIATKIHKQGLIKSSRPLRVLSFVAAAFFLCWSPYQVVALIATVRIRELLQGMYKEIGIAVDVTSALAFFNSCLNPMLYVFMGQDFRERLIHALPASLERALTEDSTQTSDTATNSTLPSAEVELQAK
VCAM-1 down imaging – suppression of endothelial VCAM-1 upregulation – imaging, high-content imaging, pooled HUVEC, TNFa stimulus (AID 456) | HUVEC TNFa-induced VCAM-1 surface expression, immunofluorescence imaging; numbers were filed only for top-ranked candidate wells | one-dose inhibition, % at 5 µM; IC50 in µM for titrated hits | hit rate 0.2% among 10,000;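 active = top tenth filtered wells with inhibition above zero that passed visual or statistical confirmation; inactive = the rest, including hits rejected on review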;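 also: 0% = stimulated vehicle wells and 100% = unstimulated cells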
VCAM-1 down – inhibitors of TNFa-induced VCAM-1 surface display, cell-based, plate reader, pooled HUVEC, TNFa stimulus (AID 454). HUVEC TNFa-induced VCAM-1 surface immunofluorescence, plate reader; numbers were filed only for top-ranked candidate wells. hit rate 0.2% among 10,000. inhibition, % at 5 µM;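 active = compound among top-ranked inhibitors of TNF-induced VCAM-1 adhesion protein staining, with the hit upheld by image or statistical review; inactive = the rest, including hits rejected on review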;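 also: 0% = TNFa with vehicle and 100% = cells without TNFa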
VCAM-1 augmentation – boosters of cytokine-driven VCAM-1 levels – imaging, high-content imaging, pooled HUVEC, TNFa stimulus (AID 457); Pooled HUVEC, TNFa-induced VCAM-1 immunofluorescence imaging; hits of this screen are not shown here; calls only; hit rate 0.2% among 10,000;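 active = a top-ranked rise in VCAM-1 staining upheld on image or statistical review; inactive = the rest, including candidates rejected on review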;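 also: compounds tested at 5 µM in the well; cells exposed to compound for 24 hours before fixing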
Active calls of the source: *; i = inactive; / = no result given.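 The calls were made as follows, unless noted: active = mean above 30%; inconclusive = self-fluorescent; inactive = the rest.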 Only part of the results is shown. The share of hits here may be higher or lower than overall.

entry | compound | FPRL1 ligand | VCAM-1 augmentation | FPR binder | VCAM-1 down | VCAM-1 down imaging
1 | CCCCN(CC)CCNC(=O)CN(C)S(=O)(=O)c1ccc2c(c1)c(=O)n(C)c(=O)n2C | -6 | / | -7 | / | /
2 | CC1CN(c2nc(-c3ccccc3)nc3ccccc23)CC(C)O1 (configuration not stated) | 0 | i | 3 | i | i
3 | CC1CCN(C(=O)CSc2nnc(Cc3cccn3C)n2CCc2ccccc2)CC1 | -3 | / | -1 | / | /
4 | Cn1c(=O)c(=O)n(C)c2cc(S(=O)(=O)N3CCc4ccccc43)ccc21 | 12 | / | -30 | / | /
5 | Cc1ccnc(SCCn2c(N3CCCCC3)nc3c2c(=O)n(C)c(=O)n3C)n1 | -1 | i | -2 | i | i
6 | CC(=O)c1cc2c(cc1NC(=O)CCn1cccc1)OCO2 | 2 | / | -2 | / | /
7 | COc1ccc(OC)c(NC(=O)CNC(=O)Cn2ccc3ccccc3c2=O)c1 | -3 | / | 2 | / | /
8 | COc1ccccc1OCC(=O)Nc1ccc(S(=O)(=O)Nc2nc(C)cc(C)n2)cc1 | -1 | i | -1 | i | i
9 | COc1ccc(-c2cc(C(=O)N3CCCc4ccccc43)no2)cc1OC | -1 | / | 6 | / | /
10 | CC(C)CCNC(=O)C(C)N(Cc1ccc(F)cc1)C(=O)c1ccc(CN2CCCCC2)o1 (configuration not stated) | -3 | i | -3 | i | i
11 | COc1ccc(N2CCN(C(=O)c3ccc(CS(=O)(=O)c4ccc(OC)cc4)o3)CC2)cc1 | -2 | / | 2 | / | /
12 | O=C(Nc1ccccc1C(F)(F)F)c1cc(-c2cccc(O)c2)on1 | -2 | / | 4 | / | /
13 | Cc1cc(C)n2nc(S(=O)(=O)N(C)Cc3ccccc3)nc2n1 | 6 | i | -2 | i | i
14 | COCCSc1ccccc1C(=O)Nc1cc(C)on1 | -13 | i | -4 | i | i
15 | O=S1(=O)CCC(N=Cc2cc(Br)ccc2O)C1 (configuration not stated) | -1 | i | 26 | i | i
16 | CCCc1nc2c(=O)[nH]c3ccccc3c2o1 | 3 | / | -5 | / | /
17 | COC(=O)c1ccc2c(=O)n(CCN3CCOCC3)c(SCC(=O)NC3CCCCC3)nc2c1 | 0 | / | -7 | / | /
18 | Cc1ccc(NC(=O)CNc2cccc(C)c2C)c(C)c1 | -6 | i | 0 | i | i
19 | CC(c1ccccc1)N1C(=O)c2ccc(C(=O)NCc3ccco3)cc2C1=O (configuration not stated) | -2 | i | -5 | i | i
20 | CCc1cc(=O)oc2cc(OCC(=O)N(CC)CC)c(Cl)cc12 | 14 | / | 12 | / | /
21 | CCOc1ccc(CCNC(=O)C2CCN(S(=O)(=O)CC)CC2)cc1OCC | -4 | / | 4 | / | /
22 | Cn1cccc1Cc1nnc(SCC(=O)NCc2ccc(F)cc2)n1-c1ccc(F)cc1 | -1 | i | -1 | i | i
23 | CCOc1ccccc1C1C(C(=O)Nc2ccccc2OC)=C(C)Nc2nc(CCCO)nn21 (configuration not stated) | 4 | / | 0 | / | /
24 | CCN(CC)CCCNC(=O)CC1Oc2ccc(C)cc2NC1=O (configuration not stated) | 0 | / | -2 | / | /
25 | O=c1c2ccc(-c3nnc4n3-c3ccccc3SC4)cc2nc2n1CCCCC2 | 7 | i | 3 | i | i

For convenience, part of the list above:
entry | compound | FPRL1 ligand | VCAM-1 augmentation | FPR binder | VCAM-1 down | VCAM-1 down imaging
1 | CCCCN(CC)CCNC(=O)CN(C)S(=O)(=O)c1ccc2c(c1)c(=O)n(C)c(=O)n2C | -6 | / | -7 | / | /
2 | CC1CN(c2nc(-c3ccccc3)nc3ccccc23)CC(C)O1 (configuration not stated) | 0 | i | 3 | i | i
3 | CC1CCN(C(=O)CSc2nnc(Cc3cccn3C)n2CCc2ccccc2)CC1 | -3 | / | -1 | / | /
4 | Cn1c(=O)c(=O)n(C)c2cc(S(=O)(=O)N3CCc4ccccc43)ccc21 | 12 | / | -30 | / | /
5 | Cc1ccnc(SCCn2c(N3CCCCC3)nc3c2c(=O)n(C)c(=O)n3C)n1 | -1 | i | -2 | i | i
6 | CC(=O)c1cc2c(cc1NC(=O)CCn1cccc1)OCO2 | 2 | / | -2 | / | /
7 | COc1ccc(OC)c(NC(=O)CNC(=O)Cn2ccc3ccccc3c2=O)c1 | -3 | / | 2 | / | /

Continued:
entry | compound | FPRL1 ligand | VCAM-1 augmentation | FPR binder | VCAM-1 down | VCAM-1 down imaging
26 | CN(C(=O)C1CCCO1)c1nnc(-c2ccncc2)s1 (configuration not stated) | 3 | i | -5 | i | i
27 | NC(=O)COC(=O)c1ccc(S(=O)(=O)N2CCCCCC2)cc1 | -4 | i | 2 | i | i
28 | Cc1nc(SCC(=O)Nc2cc(C)on2)c2c3c(sc2n1)CCCC3 | -5 | i | -5 | i | i
29 | CCOC(=O)N1CCN(C(=O)c2ccc3c(=O)n(-c4ccc(OC)cc4OC)c(=S)[nH]c3c2)CC1 | -3 | / | -5 | / | /
30 | Cc1nnc2ccc(N3CCN(c4ccccn4)CC3)nn12 | 4 | / | 2 | / | /
31 | Cc1ccc(CCNC(=O)CS(=O)Cc2nc(-c3cccc(C)c3)oc2C)cc1 (configuration not stated) | 0 | / | 7 | / | /
32 | Brc1ccc(-c2nnc3sc(CNC4CCCC4)cn23)cc1 | -5 | / | -4 | / | /
33 | COc1ccc(C(=O)CN2C(=O)NC3(CCCc4ccccc43)C2=O)cc1OC (configuration not stated) | -2 | i | -3 | i | i
34 | Cc1ccccc1NS(=O)(=O)c1cc(C(=O)N2CCCC2)ccc1C | 0 | i | -2 | i | i
35 | Cc1nnc(C)n1/N=C/c1cccc(Oc2ccccc2)c1 | 6 | i | 2 | i | i
36 | COc1ccc(/C(O)=C2/C(=O)C(=O)N(CCCN(C)C)C2c2ccc(Cl)cc2)cc1OC (configuration not stated) | -2 | i | -2 | i | i
37 | COc1cccc(CNC(=O)c2cc3ccccn3n2)c1 | -5 | / | 0 | / | /
38 | Cn1c(=O)cc(SCC(=O)NCc2cccnc2)c2ccccc21 | 1 | i | 1 | i | i
39 | CCN(CC)CCNC(=O)c1cn(CC)c2ccc(S(=O)(=O)N(C)C)cc2c1=O | 11 | / | -1 | / | /
40 | Cc1cccc(C)c1Nc1nc2ccccc2o1 | -8 | / | -5 | / | /
41 | O=C(CSc1nc2c(c(=O)n1-c1ccc(F)cc1)SCC2)N1CCCC1 | 3 | / | -3 | / | /
42 | COc1cccc(CNC(=O)Cn2cc3c(n2)CCCCC3)c1 | -2 | / | -3 | / | /
43 | Cc1cc(NS(=O)(=O)c2ccc(N)cc2)no1 | 2 | i | -1 | i | i
44 | CNC(=O)CC(C(=O)O)c1ccc(OC(C)C)cc1 (configuration not stated) | -6 | i | -1 | i | i
45 | Cc1cc(C)n2nc(SCc3cc(=O)n4ccccc4n3)nc2n1 | -2 | i | 0 | i | i
46 | COC(=O)CS(=O)(=O)c1ccc2c(c1)CC(=O)N2 | 4 | / | -3 | / | /
47 | CC1CCc2c(sc(N)c2C(N)=O)C1 (configuration not stated) | -1 | i | 0 | i | i
48 | Cc1nc2sc(C(c3cccc(F)c3)N3CCC(O)CC3)c(O)n2n1 (configuration not stated) | 8 | / | -4 | / | /
49 | CC1=CC(=C2C(=O)c3ccccc3C2=O)C=C(C)O1 | -3 | / | 3 | / | /
50 | CCOc1ccccc1NC(=O)Cn1cnc2c(cnn2-c2ccc(C)c(C)c2)c1=O | 3 | / | 2 | / | /

entry | compound | FPRL1 ligand | VCAM-1 augmentation | FPR binder | VCAM-1 down | VCAM-1 down imaging
51 | N#CC(C(=O)CCN1C(=O)C2CC=CCC2C1=O)c1nc2ccccc2[nH]1 (configuration not stated) | -6 | i | 1 | i | i
52 | COc1ccccc1NC(=O)c1cc(S(=O)(=O)N2CCC3(CC2)OCCO3)ccc1F | -4 | / | -2 | / | /
53 | Nc1c(N2CCCCC2)c(=O)[nH]c(=O)n1-c1ccccc1 | 4 | i | -1 | i | i
54 | O=C(CN1CCC(n2nnc3cc(F)ccc32)CC1)Nc1ccc2c(c1)CCC2 | -18 | i | 4 | i | i
55 | O=C(NCCN1C(=O)C2C3C=CC(C3)C2C1=O)Nc1ccccn1 (configuration not stated) | 0 | i | 0 | i | i
56 | CCOC(=O)c1[nH]nc2c1C(=O)N(CC)C2=O | 0 | / | 0 | / | /
57 | COc1cc(-c2nc3n(n2)C(c2ccncc2)C(C(N)=O)=C(C)N3)cc(OC)c1OC (configuration not stated) | 8 | / | 1 | / | /
58 | c1ccc(-c2cn3cccnc3n2)cc1 | -3 | i | 3 | i | i
59 | Cc1cccc(Cn2c(=O)n(Cc3ccco3)c(=O)c3ccccc32)c1 | -15 | i | -6 | i | i
60 | COc1ccc(OC(C)C(=O)N2CCN(c3ccccn3)CC2)cc1 (configuration not stated) | -4 | i | 4 | i | i
61 | CC(=O)N1C(=O)c2cccc3cccc(c23)C(=O)N1C(C)=O | 4 | i | -3 | i | i
62 | COC(=O)c1ccc(COc2ncnc3c(Cl)cc(Cl)cc23)o1 | 2 | i | -1 | i | i
63 | CCOC(=O)c1c(C)c(C(=O)NCCN2CCOCC2)c(C)n1C | 0 | i | -4 | i | i
64 | Cc1[nH]nc2c1C(=O)CC(C)(C)C2 | 9 | i | 2 | i | i
65 | CCN(CC)CCOC(=O)c1ccc(NC(=O)CCNC(=O)Cn2ccc3ccccc3c2=O)cc1 | 0 | / | -9 | / | /
66 | CCCCS(=O)(=O)NC1=NCN(Cc2ccco2)CN1 | -3 | / | 0 | / | /
67 | Cc1ccc(Cn2c(SCC(C)C)nc3c2c(=O)n(C)c(=O)n3C)cc1 | -2 | i | 2 | i | i
68 | O=C(N1CCCCCC1)N1CCN(C(=O)N2CCOCC2)CC1 | -4 | i | -7 | i | i
69 | CCCn1c(SCC(=O)NCCc2ccccc2)nnc1-c1ccccn1 | -13 | i | -8 | i | i
70 | Cc1nc2ncnn2c(C)c1CCC(=O)NC(C)CCc1ccco1 (configuration not stated) | -3 | / | -5 | / | /
71 | Cc1cc(C)nc(NC(=O)c2ccc(OC(C)C)cc2)n1 | 0 | i | 1 | i | i
72 | CC(C)OCCCNC(=O)c1ccc2c(c1)ncn2C1CCCC1 | 11 | / | 5 | / | /
73 | COc1ccc(C2C(C(=O)Nc3cccc(C)n3)c3ccccc3C(=O)N2C)cc1 (configuration not stated) | -3 | / | -6 | / | /
74 | COc1ccc(-c2nc(CSCC(=O)NCC3CCCO3)c(C)o2)cc1OC (configuration not stated) | -3 | / | 0 | / | /
75 | CCOC(=O)C1=C(c2ccccc2)N(C)C(=O)NC1c1ccc(OC(F)F)c(OC)c1 (configuration not stated) | 4 | / | -5 | / | /

Some of the entries so far, field by field:
70	Cc1nc2ncnn2c(C)c1CCC(=O)NC(C)CCc1ccco1 (configuration not stated)
  FPRL1 ligand: -3
  VCAM-1 augmentation: /
  FPR binder: -5
  VCAM-1 down: /
  VCAM-1 down imaging: /

71	Cc1cc(C)nc(NC(=O)c2ccc(OC(C)C)cc2)n1
  FPRL1 ligand: 0
  VCAM-1 augmentation: i
  FPR binder: 1
  VCAM-1 down: i
  VCAM-1 down imaging: i

72	CC(C)OCCCNC(=O)c1ccc2c(c1)ncn2C1CCCC1
  FPRL1 ligand: 11
  VCAM-1 augmentation: /
  FPR binder: 5
  VCAM-1 down: /
  VCAM-1 down imaging: /

73	COc1ccc(C2C(C(=O)Nc3cccc(C)n3)c3ccccc3C(=O)N2C)cc1 (configuration not stated)
  FPRL1 ligand: -3
  VCAM-1 augmentation: /
  FPR binder: -6
  VCAM-1 down: /
  VCAM-1 down imaging: /

The listing continues:
entry | compound | FPRL1 ligand | VCAM-1 augmentation | FPR binder | VCAM-1 down | VCAM-1 down imaging
76 | COc1cccc(-c2nc(CS(=O)(=O)CC(=O)NCCC(C)C)c(C)o2)c1 | 2 | / | 34* | / | /
77 | CC1(C)CC(=O)CC(C)(C)N1OC(=O)c1ccccn1 | 0 | i | -4 | i | i
78 | CCOCCCNS(=O)(=O)c1ccc2c(c1)oc(=O)n2CC(=O)OCC | -10 | i | -22 | i | i
79 | CC1CCCCC1NC(=O)C1CCN(C(=O)c2sccc2-n2cccc2)CC1 (configuration not stated) | 0 | / | 4 | / | /
80 | CC(C)=CC(=O)OCC(=O)NC(=O)NC(C)(C)C | 8 | i | -1 | i | i

From PubChem
